Assay outcomes (PubChem)
Beta cell apopt: blocks beta cell apoptosis; INS-1E cytokine-induced death, ATP luminescence, 48 h; percent of positive-control rescue, neutral wells zero; protection from apoptosis, % (no concentration beside the values); 300,000 compounds, 0.8% hits; AID 435005;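 active = all replicates at 75% or more, or half of them and the mean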;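 note: 0% = cytokine-treated negative control wells and 100% = positive control rescue; higher means more ATP so stronger rescue from cytokine killing; wells of about 40 µL received 100 nL stock; the first replicate is given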
T cruzi inh: blocks replication of Trypanosoma cruzi; AID 1885; inhibition, % (no concentration beside the values); T. cruzi beta-gal in NIH3T3, luminescence, 90 h; 300,000 compounds, 1.4% hits;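 active = mean inhibition across valid replicates above about 55%, limit read from the data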;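 note: signal also drops with host cell toxicity which is not excluded here; 0% = plate median of DMSO wells and 100% = zero luminescence signal; higher percent means less beta-gal luminescence so fewer parasites; stock transfer was 50 nL into about 50 µL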
rRNA inh HTS: inhibits bacterial ribosomal RNA function over humanized ribosomes; E. coli WT GFP vs humanized-ribosome RFP mutants, fluorescence, 24 h; active compounds read low; DMSO median 0, no signal -100; GFP signal change (wild-type ribosome), % (test concentration not listed); 350,000 compounds, 1.6% hits; AID 720706;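 active = significant combined selectivity score with lowered wild-type GFP, culture density cut under 30%, mutant RFP and density less affected; inactive = any of these conditions unmet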; note: one replicate is shown; some compounds called inactive have numbers as strong as hits
Bfl-1 A1 inh: inhibitors of the anti-apoptotic protein A1, read as caspase activation. 330,000 compounds, 0.066% hits. caspase activation, % (concentration not given with the values). MEF A1-2A-BIM cells, Caspase-Glo 3/7 luminescence, 3 h; percent of clofoctol response, vehicle zero;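 active = over half of replicate activation scores above 10%, or exactly half above 10 with the replicate mean above 10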;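 note: wells of about 30 µL received 50 nL stock; many hits fall short of the cut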
MLL AF4-AF9 inh: blocks AF4 peptide binding to human AF9. 350,000 compounds, 0.47% hits. P42568. inhibition, % at 10 µM. AlphaScreen, biotin-AF4 peptide binding to FLAG-AF9;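 active = every replicate reaching a set inhibition limit, whatever the replicate mean, cut at about 25% in these data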;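 note: 0% = plate neutral control median and 100% = total signal loss; the record names both 10 and 1 µM as test concentration; the first replicate is given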
Target sequence (P42568 whole entry, looked up): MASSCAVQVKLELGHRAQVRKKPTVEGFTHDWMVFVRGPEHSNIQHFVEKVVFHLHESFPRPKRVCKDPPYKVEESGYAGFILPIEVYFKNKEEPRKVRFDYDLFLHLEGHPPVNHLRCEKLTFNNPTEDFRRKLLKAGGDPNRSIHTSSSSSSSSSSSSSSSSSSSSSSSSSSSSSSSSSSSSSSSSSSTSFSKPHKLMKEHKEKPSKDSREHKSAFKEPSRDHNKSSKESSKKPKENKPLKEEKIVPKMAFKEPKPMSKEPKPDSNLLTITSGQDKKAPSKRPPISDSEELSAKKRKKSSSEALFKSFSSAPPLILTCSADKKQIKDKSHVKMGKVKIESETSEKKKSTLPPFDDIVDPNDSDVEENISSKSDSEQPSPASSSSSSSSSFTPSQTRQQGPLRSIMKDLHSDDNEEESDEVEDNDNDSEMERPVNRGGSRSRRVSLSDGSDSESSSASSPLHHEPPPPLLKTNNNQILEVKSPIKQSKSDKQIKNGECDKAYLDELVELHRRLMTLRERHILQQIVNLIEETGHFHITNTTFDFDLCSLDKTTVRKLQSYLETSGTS
FGF22 binding: FGF22 (human) thermal shift binding; recombinant FGF22 thermal shift, SYPRO orange fluorescence; percent of sucrose octasulfate shift, DMSO zero; AID 651658; Q9HCT0; 340,000 compounds, 1.5% hits; calls only at 9.99 µM;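 active = melting point raised past a set limit in the mean and every replicate; three in four hits are not shown here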
Target sequence (Q9HCT0 whole entry, looked up): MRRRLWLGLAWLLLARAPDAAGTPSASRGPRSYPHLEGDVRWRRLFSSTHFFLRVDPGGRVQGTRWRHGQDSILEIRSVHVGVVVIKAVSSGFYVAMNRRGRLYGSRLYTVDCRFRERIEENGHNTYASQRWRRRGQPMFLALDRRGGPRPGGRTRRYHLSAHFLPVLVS
UCH37 DUB inh: blocks the human deubiquitinase UCH37; 330,000 compounds, 0.33% hits; inhibition, % (concentration not given with the values); purified proteasome/UCH37, Ub-AMC cleavage fluorescence; Q9Y5K5;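 active = mean of two replicates above 20%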;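 note: 0% = compound-free wells with enzyme and 100% = wells lacking proteasome; stock transfer was 100 nL into about 20 µL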
Target sequence (Q9Y5K5 whole entry, looked up): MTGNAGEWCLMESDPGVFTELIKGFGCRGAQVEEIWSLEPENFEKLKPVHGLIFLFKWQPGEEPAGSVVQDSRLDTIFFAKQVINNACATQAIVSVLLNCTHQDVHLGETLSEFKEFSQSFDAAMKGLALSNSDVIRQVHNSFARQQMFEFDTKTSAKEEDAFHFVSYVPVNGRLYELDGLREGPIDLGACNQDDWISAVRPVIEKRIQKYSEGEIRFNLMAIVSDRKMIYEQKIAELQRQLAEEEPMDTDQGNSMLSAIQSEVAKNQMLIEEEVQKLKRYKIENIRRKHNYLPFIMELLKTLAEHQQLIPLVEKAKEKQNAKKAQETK
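assay system = human UCH37 enzyme supplied as purified proteasome complex | amount = proteasome at 0.15 nM in the dispensed enzyme solution | schedule = 30 min compound-proteasome preincubation then 25 min substrate reaction, room temperature | measured by = fluorescence, ex 355 nm, em 460 nm | benchmarks = no-proteasome wells (full inhibition) and compound-free wells (no inhibition)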
E coli growth: E. coli growth inhibition; Escherichia coli growth, OD600, 23 h; active compounds read low; OD600 absorbance (test concentration not listed); 330,000 compounds, 0.21% hits; AID 1053175;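 active = OD600 absorbance below the run mean of sample wells minus 3.6 SD, in any replicate, cut at about 0.56 in these data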;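 note: stock transfer was 300 nL into about 60 µL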
rRNA inh HTS OD600: second read-out of rRNA inh HTS, no call of its own (marks repeat the call); OD600 change, %; measured here: OD600 growth;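 optical density of the mix in the first replicate; 0 = DMSO median and -100 = no signal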
rRNA inh HTS RFP: recorded beside rRNA inh HTS, whose call it bears; RFP signal change, %; measured here: RFP humanized mutant strains;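 first replicate; 0 = DMSO median and -100 = no signal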
Active calls of the source: *. Not all compounds are listed; rates above refer to the full screens.

For COc1ccc(-c2noc(-c3ccc(Cl)cc3)n2)cc1 the results were Beta cell apopt -2, T cruzi inh -8, Bfl-1 A1 inh -0.6, UCH37 DUB inh 3.4 and E coli growth 0.71.
`CCOC(=O)c1c(NC(=O)CSc2nc3cccnc3n2C)sc(C(C)=O)c1C` gave Beta cell apopt 1, T cruzi inh 1, Bfl-1 A1 inh -0.6, UCH37 DUB inh -3.6 and E coli growth 0.74.
Screening CC(NC(=S)NNS(=O)(=O)c1cccc([N+](=O)[O-])c1)c1ccccc1 (centres undefined) returned T cruzi inh -24, rRNA inh HTS 2, Bfl-1 A1 inh 0.5, MLL AF4-AF9 inh -1.3, FGF22 binding inactive, UCH37 DUB inh 0.5, E coli growth 0.72, rRNA inh HTS OD600 13 and rRNA inh HTS RFP -1.4.
Screening CCn1c(C(=O)O)c(CC(=O)Nc2ccccc2F)c2ccccc21 returned Beta cell apopt -2, T cruzi inh 12, rRNA inh HTS -12, Bfl-1 A1 inh 0.2, MLL AF4-AF9 inh -3.2, FGF22 binding inactive, UCH37 DUB inh 1.2, E coli growth 0.68, rRNA inh HTS OD600 -21 and rRNA inh HTS RFP -3.4.
Screening CC(=O)C12OC1CC1C3CCC4=CC(=O)CCC4(C)C3CCC12C (centres undefined) returned Beta cell apopt -2, T cruzi inh 16, rRNA inh HTS -23*, Bfl-1 A1 inh 1.6, MLL AF4-AF9 inh -5.0, FGF22 binding inactive, UCH37 DUB inh -0.1, E coli growth 0.62, rRNA inh HTS OD600 -18* and rRNA inh HTS RFP -4.4*.
For Cc1ccc(C)c(N2CCN(C(=O)c3ccc(NS(=O)(=O)c4c(C)noc4C)cc3)CC2)c1 the results were Beta cell apopt 4, T cruzi inh 16, Bfl-1 A1 inh 1.0, UCH37 DUB inh -0.9 and E coli growth 0.7.
For O=C1Cc2ccccc2C(c2c(Cl)cccc2Cl)N1 (centres undefined) the results were T cruzi inh -19, rRNA inh HTS 4, Bfl-1 A1 inh 0.3, MLL AF4-AF9 inh -0.7, FGF22 binding inactive, UCH37 DUB inh 2.3, E coli growth 0.66, rRNA inh HTS OD600 4 and rRNA inh HTS RFP -1.9.
`CC(C)=NOCC(=O)Nn1c(COc2c(C)cccc2C)nc2ccccc2c1=O` gave T cruzi inh -11, rRNA inh HTS -1, Bfl-1 A1 inh 0.5, MLL AF4-AF9 inh -1.5, FGF22 binding inactive, UCH37 DUB inh -0.3, E coli growth 0.69, rRNA inh HTS OD600 -3 and rRNA inh HTS RFP -0.8.
CCOC(=O)C1CCN(c2nc(C)nc3c2oc2ccccc23)CC1 was read as Beta cell apopt 4, T cruzi inh -3, Bfl-1 A1 inh 0.8, UCH37 DUB inh 3.5 and E coli growth 0.72.
CN1C(C(=O)NCc2ccco2)CC2Cn3c(nc4ccccc43)C21 (centres undefined) was read as Beta cell apopt -16, T cruzi inh -1, rRNA inh HTS 7, Bfl-1 A1 inh 0.8, FGF22 binding inactive, UCH37 DUB inh 2.6, E coli growth 0.65, rRNA inh HTS OD600 12 and rRNA inh HTS RFP 1.4.
COc1ccc(S(=O)(=O)Nc2ccc(S(=O)(=O)N(C)C)cc2)cc1[N+](=O)[O-] was read as Beta cell apopt -1, T cruzi inh -10, rRNA inh HTS 16, Bfl-1 A1 inh 0.7, MLL AF4-AF9 inh 0.1, FGF22 binding inactive, UCH37 DUB inh 4.8, E coli growth 0.67, rRNA inh HTS OD600 16 and rRNA inh HTS RFP -8.0.
For Cc1ccc(C(=O)O)cc1NC(=O)CSc1nnc(-c2ccccc2F)n1C1CCCCC1 the results were Beta cell apopt -1, rRNA inh HTS -31, Bfl-1 A1 inh -0.9, MLL AF4-AF9 inh 3.5, FGF22 binding inactive, UCH37 DUB inh 3.0, E coli growth 0.69, rRNA inh HTS OD600 -27 and rRNA inh HTS RFP -4.1.
Screening CN1C(=O)c2ccc(C(=O)Nc3nccs3)cc2C1=O returned Beta cell apopt 0, T cruzi inh -25, rRNA inh HTS 11, Bfl-1 A1 inh -0.5, MLL AF4-AF9 inh -6.6, FGF22 binding inactive, UCH37 DUB inh 0.8, E coli growth 0.71, rRNA inh HTS OD600 18 and rRNA inh HTS RFP -2.3.
For CC(=O)c1ccc(S(=O)(=O)N(C)CC(=O)N2CCCCCC2)cc1 the results were Beta cell apopt -3, T cruzi inh -2, rRNA inh HTS 8, Bfl-1 A1 inh 0.3, MLL AF4-AF9 inh -16, FGF22 binding inactive, UCH37 DUB inh 3.4, E coli growth 0.69, rRNA inh HTS OD600 12 and rRNA inh HTS RFP 0.5.
Cc1ccc(Nc2nc(N3CCOCC3)nc(N3CCOCC3)n2)cc1Cl was read as Beta cell apopt 20, T cruzi inh 22, rRNA inh HTS 11, Bfl-1 A1 inh 2.0, MLL AF4-AF9 inh 0.3, FGF22 binding inactive, UCH37 DUB inh 3.1, E coli growth 0.73, rRNA inh HTS OD600 16 and rRNA inh HTS RFP -0.3.
COc1ccc(S(=O)(=O)Nc2ccc(Cl)cn2)c(C)c1C was read as Beta cell apopt 2, T cruzi inh 3, Bfl-1 A1 inh -0.2, UCH37 DUB inh 3.3 and E coli growth 0.7.
CC(C)c1ccc(C(=O)CC2(O)C(=O)N(CN3CCOCC3)c3ccccc32)cc1 (centres undefined) was read as Beta cell apopt -7, T cruzi inh -14, Bfl-1 A1 inh 0.1, UCH37 DUB inh 0.7 and E coli growth 0.64.
For COCCOC(=O)/C(=C/c1ccc(OC(=O)c2ccccc2)cc1)C(C)=O the results were Beta cell apopt -6, T cruzi inh 3, Bfl-1 A1 inh 0.3, UCH37 DUB inh 4.1 and E coli growth 0.67.
`COc1cc2c(c(OC)c1OC)C(c1ccc3c(c1)OCO3)CC(=O)O2` (centres undefined) gave rRNA inh HTS -20*, MLL AF4-AF9 inh 2.1, FGF22 binding inactive, UCH37 DUB inh -0.5, E coli growth 0.67, rRNA inh HTS OD600 -4.6* and rRNA inh HTS RFP 1.2*.
`O=C(O)c1cccc(NC2=C(n3nnc4ccccc43)C(=O)c3ccccc3C2=O)c1` gave Beta cell apopt 0, T cruzi inh 14, rRNA inh HTS 6, Bfl-1 A1 inh 0.2, MLL AF4-AF9 inh -1.5, FGF22 binding inactive, UCH37 DUB inh 52*, E coli growth 0.68, rRNA inh HTS OD600 0 and rRNA inh HTS RFP -7.4.

Two entries drawn at random from the list so far:
COc1ccc(S(=O)(=O)Nc2ccc(Cl)cn2)c(C)c1C was read as Beta cell apopt 2, T cruzi inh 3, Bfl-1 A1 inh -0.2, UCH37 DUB inh 3.3 and E coli growth 0.7.
CC(C)c1ccc(C(=O)CC2(O)C(=O)N(CN3CCOCC3)c3ccccc32)cc1 (centres undefined) was read as Beta cell apopt -7, T cruzi inh -14, Bfl-1 A1 inh 0.1, UCH37 DUB inh 0.7 and E coli growth 0.64.

The listing continues.
`CCOC(=O)C(C)N1C(=O)S/C(=C/c2cc(C)n(-c3ccccn3)c2C)C1=O` (centres undefined) gave Beta cell apopt 2, T cruzi inh 14, Bfl-1 A1 inh -0.8, UCH37 DUB inh 4.6 and E coli growth 0.72.
Screening O=[N+]([O-])c1cccnc1Oc1ccccc1F returned Beta cell apopt -7, T cruzi inh -2, rRNA inh HTS 6, Bfl-1 A1 inh 0.1, MLL AF4-AF9 inh 0.3, FGF22 binding inactive, UCH37 DUB inh 2.4, E coli growth 0.67, rRNA inh HTS OD600 5 and rRNA inh HTS RFP 5.2.
COC(=O)c1ccccc1NC(=O)CNC(=O)c1ccc(OC)c(OC)c1 was read as Beta cell apopt -5, T cruzi inh -1, rRNA inh HTS -14, Bfl-1 A1 inh -0.5, MLL AF4-AF9 inh -1.7, FGF22 binding inactive, UCH37 DUB inh 3.1, E coli growth 0.72, rRNA inh HTS OD600 -12 and rRNA inh HTS RFP 0.2.
Screening COc1ccc(CCN2C(=O)CCC2(C)C(=O)NCc2cccnc2)cc1OC (centres undefined) returned T cruzi inh -4, Bfl-1 A1 inh 0.1, UCH37 DUB inh 4.6 and E coli growth 0.7.
For Cc1ccc(NC(=S)N/N=C2\CC3CC=CC23)c(C)c1 (centres undefined) the results were Beta cell apopt -3, T cruzi inh 3, rRNA inh HTS 11, Bfl-1 A1 inh 1.6, MLL AF4-AF9 inh -2.5, FGF22 binding inactive, rRNA inh HTS OD600 12 and rRNA inh HTS RFP 3.6.
Cc1ccc(-c2nc(SCC(=O)c3c(N)n(C4CC4)c(=O)[nH]c3=O)n[nH]2)cc1 was read as Beta cell apopt -1, rRNA inh HTS 10, Bfl-1 A1 inh -0.6, MLL AF4-AF9 inh -1.3, FGF22 binding inactive, UCH37 DUB inh 2.6, E coli growth 0.64, rRNA inh HTS OD600 3 and rRNA inh HTS RFP 6.2.
`O=C(Cn1cncn1)N/N=C/c1ccncc1` gave T cruzi inh 7, rRNA inh HTS 15, Bfl-1 A1 inh 0.7, MLL AF4-AF9 inh -2.7, FGF22 binding inactive, rRNA inh HTS OD600 4 and rRNA inh HTS RFP 0.9.
`COc1ccc(Nc2ncnc3sc(C)cc23)cc1` gave Beta cell apopt -3, T cruzi inh 0, Bfl-1 A1 inh -2.7, UCH37 DUB inh 2.9 and E coli growth 0.71.
For CSc1ccccc1NC(=O)CN(C)C(=O)COc1ncnc2ccccc12 the results were Beta cell apopt -1, Bfl-1 A1 inh 0.4, MLL AF4-AF9 inh -1.2, FGF22 binding inactive, UCH37 DUB inh -6.9 and E coli growth 0.69.
Screening CC(Sc1nncs1)C(=O)NC1CCCCC1C (centres undefined) returned T cruzi inh -7, rRNA inh HTS 7, Bfl-1 A1 inh -0.1, MLL AF4-AF9 inh 0.2, FGF22 binding inactive, UCH37 DUB inh 0.4, E coli growth 0.73, rRNA inh HTS OD600 1 and rRNA inh HTS RFP -0.3.
For Cc1ccc(C2=NOC3(CC(=O)N(c4ccc(C)cc4)C3=O)C2)cc1 (centres undefined) the results were Beta cell apopt -3, T cruzi inh -28, rRNA inh HTS 16, Bfl-1 A1 inh 1.4, MLL AF4-AF9 inh 7.7, FGF22 binding inactive, UCH37 DUB inh 3.4, E coli growth 0.7, rRNA inh HTS OD600 0 and rRNA inh HTS RFP -1.1.
O=C(Cn1nnc(-c2ccccc2F)n1)Nc1cccc2ncccc12 was read as Beta cell apopt 1, T cruzi inh 5, Bfl-1 A1 inh 0.1, UCH37 DUB inh 5.2 and E coli growth 0.72.
CC(OC(=O)c1ccc(-c2ccc([N+](=O)[O-])cc2)o1)C(=O)NC(N)=O (centres undefined) was read as Beta cell apopt 2, T cruzi inh -5, rRNA inh HTS 2, Bfl-1 A1 inh -0.5, MLL AF4-AF9 inh -5.4, FGF22 binding inactive, UCH37 DUB inh 8.4, E coli growth 0.68, rRNA inh HTS OD600 1 and rRNA inh HTS RFP -1.7.
Cc1ccc2cccc(OCCCOc3ccccc3F)c2n1 was read as T cruzi inh -24, rRNA inh HTS -20, Bfl-1 A1 inh 0.0, MLL AF4-AF9 inh -5.0, FGF22 binding inactive, UCH37 DUB inh -0.3, E coli growth 0.68, rRNA inh HTS OD600 -19 and rRNA inh HTS RFP -8.3.
For Fc1cc(Br)cc(F)c1NC(=S)N1CCOCC1 the results were Beta cell apopt -3, T cruzi inh 1, rRNA inh HTS 0, Bfl-1 A1 inh 0.5, MLL AF4-AF9 inh 0.3, FGF22 binding inactive, UCH37 DUB inh 3.1, E coli growth 0.67, rRNA inh HTS OD600 10 and rRNA inh HTS RFP -0.7.
